eIF4H FP inh: inhibitors of RNA binding by human eIF4H; Q15056; eIF4H fluorescence polarization binding assay; inhibition, % at 35 µM; actives 0.94% (n = 290,000); AID 2012;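 active = 50% or more with normal probe brightness, or confirmed in later tests; inconclusive = above 50% with abnormal brightness, or retests that disagree; inactive = below 50% or failed in later tests; about a fifth of its hits are not listed in these tables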;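 also: calls also rest on retests at 20 µM and on dose response follow-up; 0% = protein and probe with vehicle and 100% = probe without protein; strong numbers were not always called active; many hits fall short of the cut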
MT1-MMP act inh: MT1-MMP (human) activation inhibition | HT1080 RFP-PRO-GFP cells, GFP/RFP ratio fluorescence, overnight; percent of plate control window, DMSO zero | AID 651647 | GFP/RFP ratio change, % at 20 µM | actives 0.061% (n = 360,000) | P50281;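 active = GFP/RFP ratio change of at least 30% with cell ATP level not reduced by more than half and red fluorescence within 50% of control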; also: strong numbers were not always called active
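system = RFP-PRO-GFP reporter HT1080 cells | dosing = 20 µM single dose, 1% DMSO | timing = overnight cell settling, then overnight compound exposure, 37 °C, 5% CO2 | read-out basis = GFP/RFP fluorescence ratio | controls = DMSO and RFP-L50D-GFP cell wells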
PABP polyA inh: PABP-poly(A) binding inhibition. PABP-poly(A) RNA binding, fluorescence polarization. inhibition, % at 35 µM. actives 1% (n = 290,000);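 active = 50% or more with normal probe brightness, or confirmed in later tests; inconclusive = above 50% with abnormal brightness, or retests that disagree; inactive = below 50% or failed in later tests; about a fifth of its hits are not listed in these tables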;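 also: calls also rest on retests at 20 µM and on dose response follow-up; controls were probe without protein and protein plus probe with vehicle; some compounds called inactive have numbers as strong as hits; many hits fall short of the cut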
Target sequence (P11940 whole entry, looked up): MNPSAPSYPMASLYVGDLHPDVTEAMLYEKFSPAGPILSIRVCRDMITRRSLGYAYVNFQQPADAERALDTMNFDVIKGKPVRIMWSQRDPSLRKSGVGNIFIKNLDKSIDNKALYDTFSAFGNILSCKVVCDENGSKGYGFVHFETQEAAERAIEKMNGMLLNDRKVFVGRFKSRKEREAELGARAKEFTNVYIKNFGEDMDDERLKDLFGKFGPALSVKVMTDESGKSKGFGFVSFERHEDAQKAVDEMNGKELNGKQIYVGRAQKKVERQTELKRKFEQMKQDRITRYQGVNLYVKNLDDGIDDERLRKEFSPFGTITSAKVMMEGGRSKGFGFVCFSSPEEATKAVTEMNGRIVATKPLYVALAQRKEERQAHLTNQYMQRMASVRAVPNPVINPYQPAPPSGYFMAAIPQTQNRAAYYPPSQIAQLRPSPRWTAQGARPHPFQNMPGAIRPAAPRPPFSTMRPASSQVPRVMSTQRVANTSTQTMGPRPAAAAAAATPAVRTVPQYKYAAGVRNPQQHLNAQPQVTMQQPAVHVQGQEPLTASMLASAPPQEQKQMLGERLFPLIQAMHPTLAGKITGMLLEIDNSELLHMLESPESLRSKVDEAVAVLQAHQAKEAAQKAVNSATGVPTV
CSC inhib: blocks cancer stem cells. actives 1.1% (n = 300,000). cancer stem cell-like cells viability, luminescence. inhibition, % at 7.5 µM;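 active = mean at 75% or more and at least half the replicates too; inconclusive = mean and replicates disagree; tested in HMLE shEcad cells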;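 also: 0% = median of negative and 100% = median of positive control wells; the first replicate is given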
UUG fidelity: alters start codon recognition fidelity in yeast; S. cerevisiae UUG-firefly luciferase reporter, luminescence/redox ratio; activity score, % at 18.7 µM; actives 0.13% (n = 350,000); AID 602363;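 active = replicate mean at a twofold rise or more, about +100% in these data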;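 also: firefly luciferase made from a UUG start codon reports start codon fidelity; reporter light over untreated wells divided by growth signal over untreated wells; some hits fall short of that in this replicate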
HIV Env fusion: blocks HIV Env-driven cell-cell fusion; HeLa-JRFL Env/CEM21 cell fusion, luciferase; inhibition, % at 12.3 µM; actives 1.1% (n = 360,000); AID 651610;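 active = mean replicate inhibition score of at least 50 and every replicate individually at or above 50; inconclusive = only one of the two criteria met; inactive = mean below 50 and not all replicates reaching 50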;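 also: 0% = plate neutral controls and 100% = maraviroc near 300 nM; one replicate is shown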
Rce1 inh: inhibitors of yeast Ras-converting enzyme; Q03530; yeast membranes, quenched prenylated peptide cleavage fluorescence; calls only; actives 0.27% (n = 290,000); AID 2563;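 active = fall in fluorescence gain of 50% or more versus controls, with final raw signal at or below 3038400; inconclusive = same 50% fall but final raw signal above 3038400; inactive = fall in fluorescence gain under 50%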;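 also: plate controls were neutral control wells for no effect and wells lacking membranes for full effect; tested at 10 µM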
eIF4H FP inh retest: further read-out of eIF4H FP inh, marked with its call; inhibition, %; compound at 20 µM; confirmation average;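 mean of two retest wells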
PABP polyA inh retest: also measured in PABP polyA inh; calls as there; inhibition, %; compound at 20 µM; confirmation repeats;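 mean of two retest wells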
MT1-MMP act inh RFP: second read-out of MT1-MMP act inh, no call of its own (marks repeat the call); RFP signal change, %; measured here: RFP expression control read;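 0 = vehicle wells; hits needed this value within 50% of zero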
* hit, by the source's call; i = inactive; ? = inconclusive; / = no result given; + = active, no number.

SMILES	eIF4H FP inh	MT1-MMP act inh	MT1-MMP act inh RFP	PABP polyA inh	CSC inhib	UUG fidelity	HIV Env fusion	Rce1 inh	others
C=CCc1c(C)nc(-c2ccccc2)nc1N/N=C/c1ccccc1	-4	-7	-8	13	1	/	-7	i
COc1cccc(Cn2nnc(C(=O)NCc3ccc(F)cc3)c2N)c1	5	1	1	-2	-12	-2	10	i
C=CCOC(=O)C1=C(C)NC(SCC(=O)Nc2nccs2)=C(C#N)C1c1ccc(Cl)cc1 (stereo unspecified)	-7	-4	-8	-9	-2	-21	103*	i
CCOC(=O)C1=NN(C(C)=O)C2(CC(=O)N(c3cccc(C)c3)C2=O)C1 (stereo unspecified)	-1	0	4	38	0	/	-4	i
Cc1ccc(-c2n[nH]c(=S)n2/N=C/C=C\c2ccccc2[N+](=O)[O-])cc1	6	1	-1	0	-9	/	/	i
CCOC(=O)c1cc2cc(OC)ccc2[nH]1	12	2	-11	-2	-5	-22	/	i
Cc1ccc(NC(=O)CN2C(=O)C3C4C=CC(C4)C3C2=O)cc1S(=O)(=O)N(C)C (stereo unspecified)	-4	-1	0	9	-5	/	7	i
Cc1ccc(-n2c(SCC(=O)Nc3ccc4c5c(cccc35)CC4)nc(O)c(C)c2=O)cc1	6	0	5	9	0	/	-6	i
COc1cc(C2Nc3ccccc3C(=O)N2c2ccccc2)c(Br)cc1OCC(=O)O (stereo unspecified)	-5	-1	-4	-8	1	-15	19	i
CCCCCCC(=O)N1CCN(c2cc3c(cc2F)c(=O)c(C(=O)O)cn3CC)CC1	/	0	-4	/	-8	-18	/	i
CCN(CC)S(=O)(=O)c1ccc(N2CCN(c3cccc(OC)c3)CC2)c([N+](=O)[O-])c1	0	9	-9	2	30	-16	43	i
Cc1oc2c(c1C(=O)NCCCC(=O)O)CCCC2	5	-2	-3	3	-9	-13	/	i
CC(C)(C)c1ccc(S(=O)(=O)N2CCC(NC(=O)c3ccco3)CC2)cc1	0	-5	-2	-11	/	-15	-3	i
COc1ccc(CCNc2oc(-c3ccccc3OC)nc2C#N)cc1	9	0	-1	7	-3	-12	/	i
NC(=S)Nc1ncc(CCN2CCOCC2)c(-c2ccc(F)cc2)n1	3	-1	4	2	7	/	-13	i
c1ccc2cc3[nH]c(CN4CCCCC4)nc3cc2c1	1	6	3	2	-5	-3	1	i
O=C(CCCC(=O)OCC(=O)c1ccc(F)cc1)Nc1cc(C(F)(F)F)ccc1Cl	-3	4	1	4	0	-21	-71	i
ClCc1nc2ccccc2n1Cc1ccccc1	?	-6	-4	?	53	-2	-19	i
O=C(Nc1nnc(C2CC2)o1)c1ccc(S(=O)(=O)N2CCc3ccccc3C2)cc1	24	-2	3	-5	31	/	8	i
O=C(COc1ccc(Cl)cc1)NCCNC(=O)c1ccccn1	-5	1	0	-2	/	-6	7	i
O=C(CCSc1ccccc1)Nc1nc2c(s1)CCCC2	-7	4	-2	-7	-1	-14	-72	i
C/C(=N/NC(=O)c1cc2ccccc2cc1O)C1C(=O)c2ccccc2C1=O	45	-10	-8	54*	48	-8	-51	i	eIF4H FP inh retest=41;PABP polyA inh retest=58*
CS(=O)(=O)n1nc(OC(=O)c2cccc3ccccc23)cc1N	-4	-5	-4	4	18	-16	30	i
CCc1nnc(NC(=O)CSc2nc(-c3ccc(OC)cc3)ns2)s1	-9	4	-1	4	6	-6	-88	i

Part of the list above in order of molecular weight, descending:
SMILES	eIF4H FP inh	MT1-MMP act inh	MT1-MMP act inh RFP	PABP polyA inh	CSC inhib	UUG fidelity	HIV Env fusion	Rce1 inh	others
O=C(Nc1nnc(C2CC2)o1)c1ccc(S(=O)(=O)N2CCc3ccccc3C2)cc1	24	-2	3	-5	31	/	8	i
O=C(CCSc1ccccc1)Nc1nc2c(s1)CCCC2	-7	4	-2	-7	-1	-14	-72	i
c1ccc2cc3[nH]c(CN4CCCCC4)nc3cc2c1	1	6	3	2	-5	-3	1	i

Going on with the list.
SMILES	eIF4H FP inh	MT1-MMP act inh	MT1-MMP act inh RFP	PABP polyA inh	CSC inhib	UUG fidelity	HIV Env fusion	Rce1 inh	others
COc1ccc2c(c1O)Cc1ccccc1C2=O	4	35*	37*	3	-19	1	/	i
O=S(=O)(c1cccc2ccccc12)N1CCC2CC1c1cc(Cl)ccc12 (stereo unspecified)	/	0	-7	/	/	-11	17	/
O=C(c1ccc(COc2ccccc2Cl)o1)N1CCN(c2ccccc2)CC1	-7	0	-2	4	/	-9	?	i
O=C(CCN1CCOCC1)Nc1c(-c2ccccc2)c2cc(Br)ccc2[nH]c1=O	-2	-6	-1	-7	-8	-14	16	i
CC(C)(C)N1C(=O)c2ccccc2NC(=O)N1Cc1ccccc1	2	2	6	-8	-13	-14	-25	i
Cc1ccc(N2C(=O)c3ccccc3C(C)(C)C2=O)cc1	-14	1	-1	-14	3	-20	12	i
Cn1c(SC2=CS(=O)(=O)c3ccccc32)nc2ccccc21	6	-6	-8	-1	46	-22	/	i
COc1ccc(NC(=O)CCNS(=O)(=O)c2ccc3c(c2)c(=O)n(C)c(=O)n3C)cc1OC	-7	0	1	16	1	/	-4	i
COc1ccc(-n2nc3c(c2NC(=O)CCl)CSC3)cc1	/	-8	-2	/	2	-21	-6	i
Cc1cc(C)c2oc(C(=O)N(Cc3ccccc3)C3CCS(=O)(=O)C3)cc(=O)c2c1 (stereo unspecified)	-6	2	-2	-12	-1	/	2	i
CCOC(=O)c1sc2cccc(F)c2c1N	-4	-2	2	4	12	-8	/	i
COc1cc(-c2nnc(-c3ccc(N4CCOCC4)cc3)o2)cc(OC)c1OC	-5	8	-2	2	0	-1	-33	i
OCCN1CCN(CC#CCn2c3ccccc3c3ccccc32)CC1	2	6	-3	20	3	-8	/	i
COc1cc(Br)c(CCNC(=O)c2ccco2)cc1OC	8	1	6	-12	8	-15	2	i
COc1ccc(CCNC(=O)C2Cc3ccccc3C(=O)O2)cc1 (stereo unspecified)	-6	1	2	1	-7	/	10	/
CCOC(=O)c1ncccc1NC(=O)CC(=O)Nc1cccnc1C(=O)OCC	/	-1	-1	/	-6	-10	10	i
COc1ccc(C2C(C(=O)Nc3cc(C)on3)c3ccccc3C(=O)N2C)cc1 (stereo unspecified)	-9	-1	-9	-3	-9	-15	-74	i
Cc1c(C(=O)NCc2ccc(S(N)(=O)=O)cc2)oc2ccc(Cl)cc12	6	5	2	0	-9	/	9	/
C#Cc1ccc([C@@H]2C=C(C(=O)NCc3nc4ccccc4[nH]3)O[C@H](OCC)[C@H]2CCCO)cc1	-8	-5	-1	-14	-9	-20	-35	i
C/C(=N\O)c1ccc(Cl)c(Cl)c1	0	/	/	3	-1	/	/	i
CCN(C1CCCCC1)S(=O)(=O)c1ccc(S(=O)(=O)NCc2ccncc2)cc1	-1	-4	-19	-7	17	-16	81*	i
C=C(C)CN(CC)CCC(=O)Nc1ccc(OC)cc1OC	-6	1	-1	7	-12	-17	-22	i
COc1ccc(-n2nc(C(=O)NCC(=O)NCc3ccc(F)cc3)c3ccccc3c2=O)cc1	-2	-2	-2	10	5	8	0	+
CCOC(=O)[C@H]1[C@H]2COc3ccc(OC)cc3[C@@H]2N2C(=O)c3ccc(Cl)cc3NC(=O)[C@@]12C	/	-3	-2	/	-11	10	-18	/
COCCNC(=O)NC(=O)CN1CCCc2ccccc21	2	-15	3	72	-3	/	9	/	eIF4H FP inh retest=-3;PABP polyA inh retest=3
CC(NC(=O)CCl)c1ccccc1Br (stereo unspecified)	-7	-1	-6	1	10	/	-5	i
O=C(Nc1nccs1)C1CCCN(S(=O)(=O)c2cccc3cccnc23)C1 (stereo unspecified)	-10	-2	-13	-8	24	16	37	i
CC(C)OC(=O)CCC(=O)Nc1ccc(F)cc1	-6	-4	-2	9	-9	-10	-1	i
CCOC(=O)c1cccc(NC(=O)/C=C/c2ccc3c(c2)OCO3)c1	8	6	-7	-12	2	/	/	i
O=C(c1ccc(F)cc1F)N1CCN(c2n[nH]c(=O)[nH]c2=O)CC1	0	-3	1	-3	-19	-1	6	i
CN1CCCN(c2ccc([N+](=O)[O-])cc2)CC1	1	-1	3	-11	-18	/	1	/
CC1(OC(=O)CCc2ccccc2)C(=O)C=C2C=C(c3ccsc3)OC=C2C1=O (stereo unspecified)	70*	/	/	34*	-10	/	/	i	eIF4H FP inh retest=62*;PABP polyA inh retest=89*
CN(C)C(CNC(=O)c1cccc(S(=O)(=O)Nc2ccc(Br)cc2)c1)c1ccco1 (stereo unspecified)	/	-5	-1	/	14	-6	3	i
CCOC(=O)N1CCN(c2c(N3CCN(c4cc(C)ccc4C)CC3)c(=O)c2=O)CC1	-16	-4	-4	-5	0	9	9	i
O=C(N/N=C/c1cc(Cl)ccc1O)c1ccncc1	22	-3	-7	10	9	-23	-18	i
CCOc1ccccc1N(CC(=O)NCCSCc1ccco1)S(=O)(=O)c1ccccc1	2	-5	-1	4	-7	14	3	i
COc1ccccc1CN1C[C@@H]2C[C@@H](c3[nH]c4c(C)cccc4c3C)N3CCC[C@@]23C1=O	-9	-7	-8	8	-1	/	5	i
C=CCn1c(CNC(=O)c2cccs2)nnc1SCc1ccc(Cl)cc1Cl	-1	-6	-4	3	52	-8	34	i
Cc1cc(NC(=O)CCC(=O)N(CC2CCCO2)C(C(=O)NC2CCCC2)c2cccnc2)no1 (stereo unspecified)	-3	4	4	0	/	-13	-45	i
COc1cc(NC(=O)c2ccccc2NS(=O)(=O)c2ccc(Cl)s2)cc(OC)c1	-7	-15	-29	-8	64	-6	/	i
CN(C)c1cccc(CNC(=O)c2csc([C@@H]3O[C@H](CO)[C@H](O)[C@H](O)[C@H]3O)n2)c1	/	4	7	/	/	-7	-8	/
COc1ccc2nc(/C=N/NC(=O)[C@@H]3CCCN3C(=O)OC(C)(C)C)ccc2c1	5	3	1	4	1	-2	-17	i
O=C1CCC([N+](=O)[O-])C(c2ccccc2Cl)N1 (stereo unspecified)	2	-1	5	3	-10	-24	-45	i
O=C(COC(=O)Cc1cccs1)Nc1ccccc1	-2	1	4	-2	11	/	/	i
C/C(=N\NC(=O)c1ccc(Br)cc1)c1cccc(NC(=O)c2cccnc2)c1	5	5	6	5	-11	/	-9	+
CC(=O)N/C(=N\OCc1ccc(Br)cc1)c1nonc1NC(C)=O	6	4	4	-10	14	/	9	i
Cc1ccc(NC(=S)N2CCN(C(=O)C3CCCO3)CC2)c(C)c1 (stereo unspecified)	16	-11	1	-1	-8	-35	9	i
COc1ccc2nnc(-c3ccccc3)n2n1	-7	-5	-2	-6	-3	/	-341	i
CC12COC3(C(=O)NCCc4ccccc4)CC1CCC32C (stereo unspecified)	4	-2	-3	6	4	/	11	i
CC(=O)N(CCC(Cc1ccccc1)c1ccc2c(c1)OCO2)Cc1ccc(Cl)cc1 (stereo unspecified)	6	-24	-15	-5	-5	9	/	i
COC(=O)c1c(NC(=O)c2c(-c3ccccc3Cl)noc2C)sc2c1CCC2	-3	-10	-2	5	-7	-16	39	i
CCC1(c2ccc(F)cc2)NC(=O)N(CC(=O)N2CCOCC2)C1=O (stereo unspecified)	-8	-3	-1	-5	-17	-1	/	i
O=C(COC(=O)Cn1cnc2ccccc2c1=O)Nc1ccc2c(c1)OCO2	-11	0	1	-9	-4	-1	-4	i
Cc1cc(NC(=O)c2ccccc2Cl)no1	-1	6	6	2	-20	-25	/	i
CCN(C(=O)CN1CCC(C)CC1)c1c(N)n(Cc2ccccc2)c(=O)[nH]c1=O	/	-1	3	/	/	-7	-4	/
COc1ccc(NC(=O)CCNC(=O)Cn2cnc3sc4c(c3c2=O)CCCC4)cc1OC	-5	-4	-2	9	-17	-11	3	i

Assay outcomes (PubChem BioAssay)
